Screening results: PubChem BioAssay, ICCB-Longwood Screening Facility, Harvard Medical School
RVFV N-RNA FP – inhibitors of Rift Valley Fever Virus nucleocapsid-RNA interaction; P21700; RVFV N-RNA binding, fluorescence polarization; active compounds read low; % bound, % (no concentration beside the values); 0.1% of 20,000 active;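 active = between 0 and 58% in either replicate with normal brightness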;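 note: 100 nL library stock added to about 12 µL; 100% = protein and probe without compound and 0% = probe alone; numbers are from one replicate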
Target sequence (P21700 whole entry, looked up): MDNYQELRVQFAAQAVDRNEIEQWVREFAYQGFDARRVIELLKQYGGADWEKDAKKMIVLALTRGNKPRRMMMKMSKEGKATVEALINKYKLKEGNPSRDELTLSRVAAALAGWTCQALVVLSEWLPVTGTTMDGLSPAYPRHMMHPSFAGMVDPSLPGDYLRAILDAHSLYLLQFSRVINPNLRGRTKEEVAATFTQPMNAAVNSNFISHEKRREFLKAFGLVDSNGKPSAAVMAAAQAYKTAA
Numbers without * were called inactive; & = joins results of further samples. Only part of the results is shown; count on the stated rates, not on these rows.

C#C[C@]1(O)CC[C@H]2[C@@H]3CCC4=CC(=O)CC[C@@H]4[C@H]3CC[C@@]21CC
  RVFV N-RNA FP = 92.2&95.2

O=C(c1ccccc1)c1ccc2n1CCC2C(=O)O (stereo not drawn)
  RVFV N-RNA FP = 90.1&94.7

COc1cc(C)nc(-n2nc(C)cc2OC)n1
  RVFV N-RNA FP = 110.1

CCCCN(CCCC)CC(O)c1cc(Cl)cc2c1-c1ccc(Cl)cc1/C2=C/c1ccc(Cl)cc1 (stereo not drawn)
  RVFV N-RNA FP = 94.7

CC1CCc2c(N3CCC(O)CC3)c(F)cc3c(=O)c(C(=O)O)cn1c23 (stereo not drawn)
  RVFV N-RNA FP = 95.0

CCCCc1c(-c2ccc(OC)cc2)[nH]c2nccnc12
  RVFV N-RNA FP = 114.1

CN1C(=O)CC(C)(c2ccccc2)C1=O (stereo not drawn)
  RVFV N-RNA FP = 103.6

CN[C@@H]1C[C@H]2O[C@@](C)([C@@H]1OC)n1c3ccccc3c3c4c(c5c6ccccc6n2c5c31)C(=O)N[C@H]4O
  RVFV N-RNA FP = 103.1

CN(C)C(=N)N=C(N)N
  RVFV N-RNA FP = 94.1

CCOC(=O)Nc1ccc(NCc2ccc(F)cc2)nc1N
  RVFV N-RNA FP = 98.6

Reformatted: 2 of the compounds above
| structure | RVFV N-RNA FP |
| --- | --- |
| CCCCN(CCCC)CC(O)c1cc(Cl)cc2c1-c1ccc(Cl)cc1/C2=C/c1ccc(Cl)cc1 (stereo not drawn) | 94.7 |
| CC1CCc2c(N3CCC(O)CC3)c(F)cc3c(=O)c(C(=O)O)cn1c23 (stereo not drawn) | 95.0 |

(continued)
CC(=O)O[C@@]12CO[C@@H]1C[C@H](O)[C@@]1(C)C(=O)[C@H](O)C3=C(C)[C@@H](OC(=O)[C@H](O)[C@@H](NC(=O)OC(C)(C)C)c4ccccc4)C[C@@](O)([C@@H](OC(=O)c4ccccc4)[C@H]21)C3(C)C
  RVFV N-RNA FP = 95.6

CN(CCOc1ccc(NS(C)(=O)=O)cc1)CCc1ccc(NS(C)(=O)=O)cc1
  RVFV N-RNA FP = 91.6&95.3&91.3

CC(C)(C(=O)c1cccnc1)c1cccnc1
  RVFV N-RNA FP = 93.3

O=C1CCc2cc(OCCCCc3nnnn3C3CCCCC3)ccc2N1
  RVFV N-RNA FP = 96.2

CCCc1cc(C(N)=S)ccn1
  RVFV N-RNA FP = 99.0

COC(=O)Nc1nc2ccc(S(=O)c3ccccc3)cc2[nH]1 (stereo not drawn)
  RVFV N-RNA FP = 95.7

O=C(OC1C[C@@H]2CC3C[C@H](C1)N2CC3=O)c1c[nH]c2ccccc12 (stereo partly drawn)
  RVFV N-RNA FP = 100.3

CCCN(CCC)C(=O)C(CCC(=O)O)NC(=O)c1ccccc1 (stereo not drawn)
  RVFV N-RNA FP = 91.6

CC(=O)O[C@@]12CO[C@@H]1C[C@H](O)[C@@]1(C)C(=O)[C@H](O)C3=C(C)[C@@H](OC(=O)[C@H](O)[C@@H](NC(=O)OC(C)(C)C)c4ccccc4)C[C@](O)([C@@H](OC(=O)c4ccccc4)[C@H]21)C3(C)C
  RVFV N-RNA FP = 107.4

Nc1cc(=O)[nH]c(N)n1
  RVFV N-RNA FP = 100.7

CN1CCN(c2cc3c(cc2F)c(=O)c(C(=O)O)cn3-c2ccc(F)cc2)CC1
  RVFV N-RNA FP = 114.0

CN=C(NC#N)Nc1ccc(C2=NNC(=O)CC2C)cc1 (stereo not drawn)
  RVFV N-RNA FP = 96.6

C[C@@H]1CC(=O)NN=C1c1ccc(NN=C(C#N)C#N)cc1
  RVFV N-RNA FP = 97.5

C[C@@H]1C[C@H]2[C@@H]3C[C@H](F)C4=CC(=O)C(Cl)=C[C@]4(C)[C@@]3(F)[C@@H](O)C[C@]2(C)[C@@]1(O)C(=O)CO
  RVFV N-RNA FP = 101.7

Cc1nc2c([nH]1)c(=O)n(C)c(=O)n2Cc1ccco1
  RVFV N-RNA FP = 107.2&96.4

Cc1ccc(Nc2c(F)cccc2Cl)c(CC(=O)O)c1
  RVFV N-RNA FP = 99.1

CN(C)CCC[C@@]1(c2ccc(F)cc2)OCc2cc(C#N)ccc21
  RVFV N-RNA FP = 94.7&94.2

O=c1cc(N2CCOCC2)nc2c3ccccc3ccn12
  RVFV N-RNA FP = 102.6

O=C(NCCN1CCOCC1)c1ccc(Cl)cc1
  RVFV N-RNA FP = 103.6&96.6

O=C(O)CCCCCCCC(=O)O
  RVFV N-RNA FP = 91.7

5 of the compounds above, as tab-separated lines.
SMILES	RVFV N-RNA FP
Nc1cc(=O)[nH]c(N)n1	100.7
COC(=O)Nc1nc2ccc(S(=O)c3ccccc3)cc2[nH]1 (stereo not drawn)	95.7
O=C(c1ccccc1)c1ccc2n1CCC2C(=O)O (stereo not drawn)	90.1&94.7
CC1CCc2c(N3CCC(O)CC3)c(F)cc3c(=O)c(C(=O)O)cn1c23 (stereo not drawn)	95.0
O=C(OC1C[C@@H]2CC3C[C@H](C1)N2CC3=O)c1c[nH]c2ccccc12 (stereo partly drawn)	100.3

(continued)
CCN1CC(CCN2CCOCC2)C(c2ccccc2)(c2ccccc2)C1=O (stereo not drawn)
  RVFV N-RNA FP = 92.9

Cc1oncc1C(=O)Nc1ccc(C(F)(F)F)cc1
  RVFV N-RNA FP = 96.8&108.4

CN1CCC(=C2c3ccccc3CC(=O)c3sccc32)CC1
  RVFV N-RNA FP = 92.9&103.0&98.8

CN1CCN(c2c(F)cc3c(=O)c(C(=O)O)cn4c3c2SCC4)CC1
  RVFV N-RNA FP = 98.0&102.0&101.4

Some of the entries so far, in markdown.
| canonical_smiles | RVFV N-RNA FP |
| --- | --- |
| Cc1oncc1C(=O)Nc1ccc(C(F)(F)F)cc1 | 96.8&108.4 |
| CN1CCC(=C2c3ccccc3CC(=O)c3sccc32)CC1 | 92.9&103.0&98.8 |
| CN1CCN(c2c(F)cc3c(=O)c(C(=O)O)cn4c3c2SCC4)CC1 | 98.0&102.0&101.4 |
